High-throughput results: PubChem BioAssay, several laboratories
YopH PTP inh: blocks Yersinia enterocolitica YopH tyrosine phosphatase | fluorescence Ex485/Em525 | inhibition, %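 (about 10 µM by stock and volumes)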 | 140,000 compounds, 0.16% hits | AID 898;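 active means inhibition of 50% or more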;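 further: controls were vehicle for no effect and minimum signal wells for full effect; inactives centre near -20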
RecA intein inh: inhibitors of M. tuberculosis RecA intein splicing. cell-free RecA intein splicing, fluorescence. P9WHJ3. AID 2221. inhibition, %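 (about 9 µM by stock and volumes)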. 290,000 compounds, 0.75% hits; in the data active means inhibition above about 30%; inconclusive means no clear call, values can overlap the other calls;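 further: 0% = vehicle wells and 100% = reference inhibitor control wells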
Target sequence (P9WHJ3 whole entry, looked up): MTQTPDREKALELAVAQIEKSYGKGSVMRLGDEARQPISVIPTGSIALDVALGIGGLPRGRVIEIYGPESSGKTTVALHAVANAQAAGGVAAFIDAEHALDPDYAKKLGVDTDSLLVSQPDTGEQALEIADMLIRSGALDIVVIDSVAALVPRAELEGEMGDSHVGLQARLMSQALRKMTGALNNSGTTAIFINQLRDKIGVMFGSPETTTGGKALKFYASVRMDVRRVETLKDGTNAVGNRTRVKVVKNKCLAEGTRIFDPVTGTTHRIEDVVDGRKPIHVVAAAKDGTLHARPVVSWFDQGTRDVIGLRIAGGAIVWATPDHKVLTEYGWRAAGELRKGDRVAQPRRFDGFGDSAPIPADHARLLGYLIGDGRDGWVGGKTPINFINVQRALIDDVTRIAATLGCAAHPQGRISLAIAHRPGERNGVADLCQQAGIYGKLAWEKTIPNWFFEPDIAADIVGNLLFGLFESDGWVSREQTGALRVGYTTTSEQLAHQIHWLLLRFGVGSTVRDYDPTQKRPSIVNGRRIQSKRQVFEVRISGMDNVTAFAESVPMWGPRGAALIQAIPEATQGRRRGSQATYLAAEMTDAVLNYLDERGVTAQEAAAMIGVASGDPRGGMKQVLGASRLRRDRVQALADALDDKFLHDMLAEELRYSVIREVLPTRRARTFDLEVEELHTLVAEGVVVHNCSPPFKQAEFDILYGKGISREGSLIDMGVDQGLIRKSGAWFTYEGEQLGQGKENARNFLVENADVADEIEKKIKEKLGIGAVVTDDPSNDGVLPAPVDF
Arbovirus anti: antivirals against arbovirus infection. inhibition, % at 10 µM. arbovirus infection cell-based antiviral screen. AID 1251. 200,000 compounds, 0.37% hits;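 active means inhibition from about 30%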;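 further: bluetongue infection of BSR cells; cell survival read as ATP light after 72 h; 0% = infected wells without compound and 100% = uninfected wells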
Mtb H37Rv: M. tuberculosis H37Rv growth inhibitors, H37Rv strain (AID 1626); M. tuberculosis H37Rv growth inhibition; higher % means a stronger effect; 220,000 compounds, 0.95% hits; inhibition, % at 10 µM, or IC50 in µM where a hit was titrated;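 active means confirmed in a dose series; inconclusive means inhibition above 80% but not taken into the dose series; inactive means below 80% or under 30% at every dose of the series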;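 further: bacteria incubated seven days before Alamar blue readout; 0% = bacteria only wells and 100% = bacteria with antibiotic wells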
Mtb bLac sens: beta-lactam sensitization of Mtb H37Rv. AID 434955. inhibition, % at 25 µM. 330,000 compounds, 0.27% hits. M. tuberculosis H37Rv growth with meropenem, percent inhibition; hits of this screen are not shown here;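 active means about 74% or more and at least 40 points above the plate without the antibiotic, then above 30% in a dose series; inconclusive means first-round hits that could not be retested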;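 further: growth measured after seven days incubation then overnight dye step; 0% = bacteria only wells and 100% = bacteria with antibiotic; twin plates without the antibiotic show which effects depend on it; some results filed as inactive read as strong as hits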
Arbovirus anti repeat: also measured in Arbovirus anti; calls as there; inhibition, %; measured here: 10K subset replicate screen; many hits read low in the repeat;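 first of two repeat runs on a subset; 0% = infected and 100% = uninfected wells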
An asterisk follows results filed as active; ? = inconclusive; / = not tested or not shown. A portion of the library; count on the stated rates, not on these rows.

Sample of the layout, 5 compounds:
SMILES | YopH PTP inh | RecA intein inh | Arbovirus anti | Mtb H37Rv | Mtb bLac sens | others
CCN1C(=O)C2(C(C#N)=C(N)Oc3n[nH]c(-c4ccccc4)c32)c2ccccc21 (stereo unspecified) | -4 | 16 | 7 | -5% | 8
Nc1nnnn1/N=C/c1ccc(O)cc1 | -37 | / | -2 | 0% | 8
O=C(Nc1ccc(F)cc1F)N1CCN(CCc2ccccc2)CC1 | / | -1.1 | / | 4% | -9
COc1ccc(/C=C2\CCn3c2nc2cc(C(=O)O)ccc2c3=O)cc1OC | / | -14 | / | 0% | -2
COc1ccc(-n2c(O)c(C(C)=NC3CC3)c(=O)[nH]c2=O)cc1 | -28 | 9.6 | 0 | -3% | -7

The list itself, previewed entries included:
SMILES | YopH PTP inh | RecA intein inh | Arbovirus anti | Mtb H37Rv | Mtb bLac sens | others
CCN1C(=O)C2(C(C#N)=C(N)Oc3n[nH]c(-c4ccccc4)c32)c2ccccc21 (stereo unspecified) | -4 | 16 | 7 | -5% | 8
Nc1nnnn1/N=C/c1ccc(O)cc1 | -37 | / | -2 | 0% | 8
O=C(Nc1ccc(F)cc1F)N1CCN(CCc2ccccc2)CC1 | / | -1.1 | / | 4% | -9
COc1ccc(/C=C2\CCn3c2nc2cc(C(=O)O)ccc2c3=O)cc1OC | / | -14 | / | 0% | -2
COc1ccc(-n2c(O)c(C(C)=NC3CC3)c(=O)[nH]c2=O)cc1 | -28 | 9.6 | 0 | -3% | -7
Cc1ccc(CCNC(=O)c2ccc3nc4ccccc4c(=O)n3c2)cc1 | / | 2.0 | / | / | 18
CN(C)S(=O)(=O)c1cccc(-c2cn3ccccc3n2)c1 | -10 | -2.7 | 3 | 3% | 2
O=C(N/N=C/c1cccc(NC(=O)c2ccc(Cl)cc2)c1)c1ccc(O)cc1 | / | -0.6 | / | 5% | 1
CC(C)c1ccc2[nH]c(O)c(N=NC(=O)c3cccc(S(=O)(=O)N4CCCCC4)c3)c2c1 | -20 | 3.8 | -16 | ? | 100
O=C(Nc1ccccc1Cl)O/N=C(/c1ccccc1)c1ccccn1 | -13 | 2.0 | -1 | 3% | -7
Cc1cc(/C=C(\C#N)C(=O)Nc2ccccc2)c(C)n1-c1ccc2c(c1)OCO2 | -11 | -3.6 | -11 | 3% | 45
CN1CCN(C2=NC(=O)/C(=C/c3ccccc3OS(=O)(=O)c3ccccc3)S2)CC1 | / | 0.5 | / | 4% | -7
NS(=O)(=O)c1ccc(CNC(=O)CNC(=O)c2ccc(F)cc2)cc1 | / | -0.8 | / | / | -11
O=C(CC1(O)C(=O)Nc2ccccc21)c1cccnc1 (stereo unspecified) | 6 | -0.5 | 5 | -3% | 4
CNC(=S)NNS(=O)(=O)c1ccc(OC)cc1OC | / | -1.1 | 7 | -7% | 1
NC(=O)c1ccc(NC(=O)COC(=O)C(Cc2ccccc2)NC(=O)c2ccccc2)cc1 (stereo unspecified) | / | -3.0 | -2 | -3% | 0
S=C(Nc1ccc2nsnc2c1)N1CCCC1 | / | / | -5 | -2% | 4
COC(=O)c1ccc(COc2ccc3c4c(c(=O)oc3c2)CCC4)o1 | 0 | -1.1 | 2 | -7% | -1
COc1ccc(N(CC(=O)NCc2ccccc2C)S(=O)(=O)c2ccc(C)cc2)cc1OC | / | -0.1 | / | / | -5
O=C1NC2(CCCCC2)C(=O)N1c1ccccc1 | 6 | -0.2 | -3 | -9% | 3
Cc1ccc(OCC(=O)N/N=C/c2cn(Cc3ccccc3)c3ccccc23)cc1 | -3 | 5.4 | -2 | 4% | 52
COc1ccc(NC2CCCN(C(=O)c3c(C)noc3C)C2)cc1 (stereo unspecified) | / | -5.1 | / | / | 2
COc1ccc(S(=O)(=O)Nc2ccccc2SC)cc1C | -28 | 1.3 | 0 | -1% | 1
CC1CCCC(NC(=S)NC(=O)c2cncc(Br)c2)C1C (stereo unspecified) | -15 | 1.4 | 4 | 0% | 8
Cc1ccc(S(=O)(=O)n2nc(C)cc2C)cc1 | -11 | -1.0 | 7 | -1% | 7
CCN1CCN(CCNC(=O)C2CCCN(Cc3nc(-c4cccc(Cl)c4)oc3C)C2)CC1 (stereo unspecified) | / | 1.3 | -24 | -7% | -2 | Arbovirus anti repeat=-7
O=C(C1CCC1)N1CCc2cc(S(=O)(=O)NCc3ccccn3)ccc21 | -18 | -2.4 | 0 | -2% | 1
COc1ccc(S(=O)(=O)Nc2ccc(C(F)(F)F)cc2)cc1OC | -8 | 0.1 | 8 | -9% | 0
O=C(CCC1CCCCC1)NCCN1C2=NC[C@@H](Cc3ccccc3)N2C[C@H]1Cc1ccc(O)cc1 | / | 3.0 | -19 | 39% | 98
N#Cc1c2n(c3c(=S)nc[nH]c13)CCCCC2 | -4 | -3.6 | 31* | -6% | 3
CCOC(=O)C(NC(C)=O)(N1CCc2ccccc2C1)C(F)(F)F (stereo unspecified) | -3 | 1.6 | 21 | -13% | 0
COC(=O)C1=C(C)NC(C)=C(C(=O)OC)C1c1ccccc1OCc1c(C)no[n+]1[O-] | -2 | / | -9 | -2% | -7
CC1CCCCC12NC(=O)N(CC(=O)Nc1ccccc1-c1ccccc1)C2=O (stereo unspecified) | / | -1.8 | 6 | -6% | -5
Cc1ccnc2nc(C(=O)Nc3nccs3)nn12 | -19 | 2.3 | 1 | / | -4
COC(=O)[C@@H](Cc1c[nH]c2ccccc12)NC(=O)c1cc(=O)[nH]c2ccccc12 | / | -1.6 | / | -1% | -7
CC(C)(C)C(=O)N1CCC[C@@]1(CO)C(=O)O | -13 | -0.6 | -8 | -1% | -6
Cc1ccc(Oc2ccccc2/C=N/O)cc1 | -37 | 0.7 | 12 | 4% | -3
O=C(NC1CCCC1)C(c1cccnc1)N(C(=O)c1csnn1)C1CCCC1 (stereo unspecified) | -10 | 2.3 | 2 | -15% | 6
COc1ccc(C(=O)NNC2=C(C(=O)C(F)(F)F)CCC2)cc1 | / | / | / | -9% | 5
Cc1cccn2c(=O)c3cc(C(=O)NCCN4CCOCC4)c(=N)n(CCN4CCOCC4)c3nc12 | / | -32 | / | / | 5
O=C(Cc1cccc2ccccc12)N/N=C/c1ccc(OC(=O)/C=C/c2ccco2)cc1 | -22 | -4.4 | 2 | 7% | /
CCOC(=O)c1c(NC(=O)COC(=O)c2ccncc2)sc(C)c1C | / | -2.3 | 0 | -8% | 66
O=C1NC(=O)C2(Cc3ccccc3N3CCCC32)C(=O)N1c1ccccc1 (stereo unspecified) | -7 | -12 | 0 | -2% | 2
Cc1ccc(Nc2ccc([N+](=O)[O-])cn2)cc1Cl | / | 0.7 | / | / | 3
Cc1ccc(CC(=O)NCc2ccc(Cl)cc2)cc1 | / | 0.5 | -14 | 11% | 12
CCOC(=O)C(=O)c1c(-c2ccc(C)cc2)nc2ccccn12 | / | -10.0 | -9 | -2% | -7
CC(C)(C)NC(=O)Nc1ccc(Br)cc1 | / | -1.1 | 8 | -1% | -2
CCSc1ccc2cc(OC)ccc2[n+]1CC | / | -1.5 | -5 | -4% | 1
CCOC(=O)N1CCN(C(=O)CCC2CCCC2)CC1 | / | -1.2 | 0 | 0% | 0
COc1ccc(/C=C/c2nc3ccccc3c(=O)o2)cc1 | / | 4.0 | / | / | 4
O=C(COC(=O)c1cnccn1)c1ccc(Cl)c([N+](=O)[O-])c1 | / | 1.4 | / | -8% | -1
C=CCn1cc(C(=O)NCCN(CC)CC)c(=O)c2cc(S(=O)(=O)N3CCCCCC3)ccc21 | / | -2.5 | / | / | -1
CC(C)n1nc(C(=O)Nc2nnc(SCc3c(Cl)cccc3Cl)s2)c2ccccc2c1=O | -10 | 2.9 | 8 | 6% | 13
Oc1ccc(NCc2ccccc2OCc2ccccc2)cc1 | -35 | 14 | -10 | 3% | 4
CCC(=O)N1C(C(=O)O)CSC1c1ccc(OC)cc1 (stereo unspecified) | -35 | -2.0 | 0 | 19% | ? | Arbovirus anti repeat=7
COc1cc(C(=O)N2CC(C)OC(C)C2)c([N+](=O)[O-])cc1OC (stereo unspecified) | -18 | -0.5 | 2 | -3% | -10
CCN(c1ccccc1)S(=O)(=O)c1ccc(OC)c(NC(=O)CNCCc2ccccc2)c1 | / | 4.7 | 9 | 23% | 80
NC(=O)C1CCCNC1 (stereo unspecified) | / | -2.6 | / | 7% | -9
Cc1ccc(NC(=O)CC(C)S(=O)(=O)c2ccc3c(c2)NC(=O)CO3)c(Cl)c1 (stereo unspecified) | / | 6.7 | / | / | -1
COC(=O)C1=C(c2ccc(S(C)(=O)=O)cc2)C[C@@H]2CC[C@H]1N2C(=O)N1CCCC1 | / | -0.3 | / | 6% | 1

Later entries
SMILES | YopH PTP inh | RecA intein inh | Arbovirus anti | Mtb H37Rv | Mtb bLac sens | others
CCOC(=O)COc1cc(N)c(Cl)cc1Cl | / | 0.3 | 5 | 36% | 77
CCCn1nc2cc(C(=O)NCC34CC5CC(CC(C5)C3)C4)ccc2c1OCC | -33 | 7.5 | -15 | 5% | 98
Cc1ccc(N2C(=O)CSCC2=O)cc1 | 4 | -0.5 | 7 | 0% | -6
O=C(Nc1ccccc1)N(Cc1ccccc1)C1=NCCS1 | -14 | 5.5 | -2 | -7% | -10
CCOC(=O)c1ccccc1NC(=O)CSc1nnnn1C1CCCCC1 | 11 | 8.4 | -3 | 0% | 10
Cc1ccc(S(=O)(=O)C2(C(=O)N3CCN(C4CCCCC4)CC3)CC2)cc1 | -8 | 0.1 | 3 | 1% | ?
O=[N+]([O-])c1ccc(/C=N/NC2=NS(=O)(=O)c3ccccc32)cc1 | / | / | 0 | 2% | 2
O=C(CSc1nnc(-c2ccccc2)n1C1CCCCC1)Nc1ccc(S(=O)(=O)Nc2ccccn2)cc1 | -11 | 2.0 | -2 | 4% | 9
COc1ccc(C2SCCN2S(=O)(=O)c2ccccc2)cc1OC (stereo unspecified) | -15 | -2.9 | 10 | -1% | -5
CCn1c(C)c(C(C)=O)c(N2CCN(C(=O)c3ccco3)CC2)nc1=S | -18 | 1.0 | -1 | -3% | -3
Cc1ccc([N+](=O)[O-])cc1S(=O)(=O)Nc1ccccn1 | / | 1.6 | 1 | -3% | 6
COc1ccccc1NC(=O)c1cc([N+](=O)[O-])ccc1N1CCOCC1 | / | 1.1 | / | / | -6
COc1cc2c(C)nc3onc(-c4ccccc4)c3c2cc1OC | -13 | 4.8 | -13 | -5% | 4
CC1CCc2nn(CC(=O)NCc3ccc4c(c3)OCO4)cc2C1 (stereo unspecified) | 5 | -0.8 | -7 | 8% | ? | Arbovirus anti repeat=-9
Cc1ccc(NC(=O)CCNS(=O)(=O)c2ccccc2)cc1S(=O)(=O)N1CCOCC1 | / | -0.1 | / | / | -16
CC1CCc2cc(F)ccc2N1C(=O)CSc1nnc2c3ccccc3n(C)c2n1 (stereo unspecified) | -44 | -0.6 | -1 | 4% | 1
COc1ccc(N/C=C(\C=C\C#N)S(=O)(=O)c2ccccc2)cc1 | / | -0.6 | / | / | 6
CCOC(=O)c1c(-c2ccccc2)csc1NC(=O)c1cc(-c2ccccc2OC)on1 | / | -0.7 | / | / | -10
O=C(/C=C/c1ccco1)NCc1ccc2c(c1)OCO2 | / | -1.6 | -4 | 0% | 3
Cc1ccc(CCNC(=O)C2CCN(S(=O)(=O)c3ccc4c(c3)oc(=O)n4C)CC2)cc1 | / | -2.6 | / | / | -2

Taken from the entries so far, 2 compounds:
SMILES | YopH PTP inh | RecA intein inh | Arbovirus anti | Mtb H37Rv | Mtb bLac sens | others
CCOC(=O)COc1cc(N)c(Cl)cc1Cl | / | 0.3 | 5 | 36% | 77
CCCn1nc2cc(C(=O)NCC34CC5CC(CC(C5)C3)C4)ccc2c1OCC | -33 | 7.5 | -15 | 5% | 98

Next section
SMILES | YopH PTP inh | RecA intein inh | Arbovirus anti | Mtb H37Rv | Mtb bLac sens | others
O=C(O)Cc1c[nH]c2cccc(O)c12 | / | -5.5 | 5 | -2% | 0
COc1ccc(-n2c(C)cc(C(=O)CSc3nnc(-c4ccoc4C)n3C)c2C)cc1 | -17 | 3.6 | -1 | 11% | 12
COc1ccc(-c2nc(SC(CC(=O)NCc3ccccc3)c3ccc(OC)c(OC)c3)n[nH]2)cc1 (stereo unspecified) | -13 | 5.2 | -13 | 1% | 2
O=C1C2CCCN2C(c2ccccc2)N1c1ccccn1 (stereo unspecified) | -22 | -1.6 | 0 | -13% | 0
COc1ccc(CCNC(=O)Cn2cc(C(F)(F)F)cc(Cl)c2=O)cc1 | -1 | 0.0 | 3 | 2% | 0
c1ccc(-c2nnsc2-c2ccccc2)cc1 | / | 2.2 | / | / | -15
CCCn1c(C)cc(C(=O)COC(=O)c2cc(S(=O)(=O)NCC(C)C)c(Cl)cc2Cl)c1C | -20 | 5.4 | -6 | 7% | 1
CC(=O)N1CCN(c2ccc(S(C)(=O)=O)cc2[N+](=O)[O-])CC1 | / | -0.4 | 9 | -6% | -5
